Yeast UUG start: alters start codon recognition fidelity in yeast. S. cerevisiae UUG-firefly luciferase reporter, luminescence/redox ratio. activity score, % at 18.7 µM. 350,000 compounds, 0.13% hits;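 active means replicate mean at a twofold rise or more, about +100% in these data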;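 further: firefly luciferase made from a UUG start codon reports start codon fidelity; reporter light over untreated wells divided by growth signal over untreated wells; some hits fall short of that in this replicate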
CSC inhib: cancer stem cell inhibition; 300,000 compounds, 1.1% hits; inhibition, % at 7.5 µM; cancer stem cell-like cells viability, luminescence; AID 2717;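 active means mean at 75% or more and at least half the replicates too; inconclusive means mean and replicates disagree; tested in HMLE shEcad cells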;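 further: 0% = median of negative and 100% = median of positive control wells; the first replicate is given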
PABP polyA inh: blocks human PABP binding to poly(A) RNA; AID 2014; inhibition, % at 35 µM; 290,000 compounds, 1% hits; P11940; fluorescence polarization;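 active means 50% or more with normal probe brightness, or confirmed in later tests; inconclusive means above 50% with abnormal brightness, or retests that disagree; inactive means below 50% or failed in later tests; about a fifth of its hits are not listed in these tables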;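 further: calls also rest on retests at 20 µM and on dose response follow-up; controls were probe without protein and protein plus probe with vehicle; some compounds called inactive have numbers as strong as hits; many hits fall short of the cut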
Target sequence (P11940 whole entry, looked up): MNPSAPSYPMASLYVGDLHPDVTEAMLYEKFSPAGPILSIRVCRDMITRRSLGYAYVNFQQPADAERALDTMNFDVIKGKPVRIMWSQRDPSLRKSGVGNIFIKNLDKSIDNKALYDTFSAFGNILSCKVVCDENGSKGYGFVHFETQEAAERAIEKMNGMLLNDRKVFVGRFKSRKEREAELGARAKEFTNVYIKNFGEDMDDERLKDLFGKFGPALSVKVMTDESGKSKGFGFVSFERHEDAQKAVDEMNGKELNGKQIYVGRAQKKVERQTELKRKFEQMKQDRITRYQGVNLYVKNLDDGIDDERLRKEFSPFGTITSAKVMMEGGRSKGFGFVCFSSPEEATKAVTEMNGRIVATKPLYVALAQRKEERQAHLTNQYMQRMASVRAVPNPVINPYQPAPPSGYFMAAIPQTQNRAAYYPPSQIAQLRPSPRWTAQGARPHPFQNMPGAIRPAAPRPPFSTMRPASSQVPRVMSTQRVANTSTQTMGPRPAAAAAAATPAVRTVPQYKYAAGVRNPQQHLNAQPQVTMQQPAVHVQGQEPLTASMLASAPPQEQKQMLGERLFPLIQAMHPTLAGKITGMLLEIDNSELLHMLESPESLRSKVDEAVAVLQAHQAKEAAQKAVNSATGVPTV
eIF4H inh: inhibitors of RNA binding by human eIF4H | eIF4H fluorescence polarization binding assay | 290,000 compounds, 0.94% hits | inhibition, % at 35 µM | AID 2012;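 active means 50% or more with normal probe brightness, or confirmed in later tests; inconclusive means above 50% with abnormal brightness, or retests that disagree; inactive means below 50% or failed in later tests; about a fifth of its hits are not listed in these tables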;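 further: calls also rest on retests at 20 µM and on dose response follow-up; 0% = protein and probe with vehicle and 100% = probe without protein; strong numbers were not always called active; many hits fall short of the cut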
Env fusion inh: inhibitors of HIV Env-mediated cell fusion; inhibition, % at 12.3 µM; HeLa-JRFL Env/CEM21 cell fusion, luciferase; 360,000 compounds, 1.1% hits;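 active means mean replicate inhibition score of at least 50 and every replicate individually at or above 50; inconclusive means only one of the two criteria met; inactive means mean below 50 and not all replicates reaching 50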;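 further: 0% = plate neutral controls and 100% = maraviroc near 300 nM; one replicate is shown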
Rce1 inhib: inhibitors of yeast Ras-converting enzyme. 290,000 compounds, 0.27% hits. Q03530. calls only. yeast membranes, quenched prenylated peptide cleavage fluorescence;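 active means fall in fluorescence gain of 50% or more versus controls, with final raw signal at or below 3038400; inconclusive means same 50% fall but final raw signal above 3038400; inactive means fall in fluorescence gain under 50%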;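 further: plate controls were neutral control wells for no effect and wells lacking membranes for full effect; tested at 10 µM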
Target sequence (Q03530 whole entry, looked up): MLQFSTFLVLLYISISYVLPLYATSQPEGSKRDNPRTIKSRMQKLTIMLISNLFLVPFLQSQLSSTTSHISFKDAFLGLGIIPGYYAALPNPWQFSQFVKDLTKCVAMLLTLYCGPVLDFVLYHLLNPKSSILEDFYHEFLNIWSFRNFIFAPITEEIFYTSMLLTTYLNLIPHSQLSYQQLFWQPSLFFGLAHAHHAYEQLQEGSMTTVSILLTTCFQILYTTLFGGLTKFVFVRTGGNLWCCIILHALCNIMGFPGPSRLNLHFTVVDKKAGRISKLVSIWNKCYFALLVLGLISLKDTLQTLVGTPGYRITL
MT1-MMP act inh: inhibitors of human MT1-MMP activation; HT1080 RFP-PRO-GFP cells, GFP/RFP ratio fluorescence, overnight; percent of plate control window, DMSO zero; 360,000 compounds, 0.061% hits; P50281; GFP/RFP ratio change, % at 20 µM;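 active means GFP/RFP ratio change of at least 30% with cell ATP level not reduced by more than half and red fluorescence within 50% of control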; further: strong numbers were not always called active
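Read-out: GFP/RFP fluorescence ratio; Test system: RFP-PRO-GFP reporter HT1080 cells; Compound dosing: single-point 20 µM compound, 1% DMSO; Times: overnight compound exposure at 37 °C.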
eIF4H inh retest: also measured in eIF4H inh; calls as there; inhibition, %; compound at 20 µM; confirmation average;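 mean of two retest wells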
PABP polyA inh retest: also measured in PABP polyA inh; calls as there; inhibition, %; compound at 20 µM; confirmation repeats;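 mean of two retest wells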
MT1-MMP act inh RFP: further read-out of MT1-MMP act inh, marked with its call; RFP signal change, %; measured here: RFP expression control read;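 0 = vehicle wells; hits needed this value within 50% of zero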
Active calls of the source: *; i = inactive; ? = inconclusive; / = no result given. Not all compounds are listed. The share of hits here may be higher or lower than overall.

SMILES | Yeast UUG start | CSC inhib | PABP polyA inh | eIF4H inh | Env fusion inh | Rce1 inhib | MT1-MMP act inh | MT1-MMP act inh RFP | others
CCOc1ccc(NC(=O)CN(C)C(=O)c2ccccc2OCCOc2ccccc2)cc1OCC | -17 | / | / | / | -2 | / | -3 | -6
O=C(NCCc1ccccc1)/C(=C\c1ccc([N+](=O)[O-])cc1)NC(=O)c1ccc(Br)cc1 | 1 | -1 | 18 | 3 | -5 | i | 0 | 1
O=C(N/N=C\c1ccccn1)c1cccc(C(=O)N/N=C\c2ccccn2)n1 | / | -13 | / | / | -26 | i | 1 | -4
NCCCn1c(C(=O)c2ccc(Cl)cc2)c2ccc(C(F)(F)F)cc2[n+]1[O-] | -20 | -22 | / | / | 25 | i | 5 | -1
CC(=O)Nc1ncc(Cc2cc(Cl)ccc2Cl)s1 | / | 34 | -7 | -8 | -16 | i | 1 | 3
Cc1ccc(OCCC(=O)N(CC(=O)Nc2ccccc2C(F)(F)F)Cc2ccco2)cc1 | 3 | 2 | / | / | -13 | i | -3 | -2
Cc1ccc(CNC(=O)C2CCC(=O)N(CCc3ccccn3)C2)s1 (stereo not drawn) | -3 | -16 | -2 | 1 | -4 | i | -5 | -3
CCN(CC)c1nc(C(N)=O)cc(-c2ccccc2)n1 | -9 | 16 | 2 | 2 | -79 | i | -3 | -4
O=C(CSc1nnnn1-c1ccccc1)CSc1nnnn1-c1ccccc1 | -6 | / | 2 | -1 | / | i | 0 | -2
Cc1ccc(C(=O)N/C(=C/c2cn(-c3ccccc3)nc2-c2ccccc2)C(=O)O)cc1 | -1 | -1 | -10 | -1 | -6 | i | / | /
Cc1c(CN2CCC(CO)(CCOc3ccccc3)CC2)[nH]c2ccc(Cl)cc12 | / | 57 | -7 | 5 | 15 | i | -5 | -8
CCOc1ccc2nc(N3CCCC(C(=O)NC4CCCC4)C3)sc2c1 (stereo not drawn) | -12 | -3 | 0 | -4 | -27 | i | 3 | -18
CC(C)c1ccccc1OCCCCCN1CCOCC1 | -12 | 22 | / | / | 16 | / | 7 | 9
CCn1ccnc1C(O)(c1ccccc1)c1ccccc1 | -13 | -16 | 0 | -7 | -103 | i | -3 | 0
CCN(CC)CCC(=O)N1c2ccccc2CCc2ccc(NC(=O)OC(C)C)cc21 | 1 | -4 | -5 | -2 | 2 | i | 0 | -3
CC(=O)c1ccc(NC(=O)c2ccc(CNc3c(N4CCOCC4)c(=O)c3=O)cc2)cc1 | -8 | -6 | 8 | -16 | 7 | i | 7 | 6
COC(=O)c1cc(S(=O)(=O)N(Cc2ccccc2)C(C)(C)C)c[nH]1 | / | 13 | 8 | -4 | 17 | i | -2 | -7
Cc1ccc(S(=O)(=O)N(C(=O)c2ccncc2)c2ccc(OC(=O)c3ccncc3)cc2)cc1 | / | 11 | -5 | -8 | / | i | 2 | -2
CCOc1ccc(/C(O)=C2/C(=O)C(=O)N(CCN(CC)CC)C2c2ccco2)cc1 (stereo not drawn) | 1 | -12 | 3 | -4 | 7 | i | 2 | 4
CC(=O)NCCNc1nc2cc(-c3ccc(C)cc3)sc2c(=O)n1C | 0 | / | / | / | -4 | / | 3 | -17
COC(=O)c1ccccc1S(=O)(=O)NNC(=O)c1ccccc1-n1cccc1 | -29 | 12 | 60 | 8 | / | i | -1 | 0 | eIF4H inh retest=0;PABP polyA inh retest=30
O=C(CCn1c(=S)oc2ccccc21)Nc1cccc(F)c1 | / | -4 | 5 | -11 | -42 | / | -1 | 1
CS(=O)(=O)N1CCN=C1SCc1ccc(Br)cc1 | -13 | -7 | -2 | -2 | 3 | i | -3 | 0
CCCCN1C(=O)C(O)(CC(=O)c2ccccc2OC)c2ccccc21 (stereo not drawn) | -12 | -2 | -3 | -4 | -8 | i | 6 | 4
CC(C)C(NC(=O)c1ccc(Cl)cc1Cl)C(=O)N1CCN(S(=O)(=O)c2ccccc2)CC1 (stereo not drawn) | / | 10 | / | / | 5 | / | -6 | -2

4 successive entries out of the list so far, for reference:
SMILES | Yeast UUG start | CSC inhib | PABP polyA inh | eIF4H inh | Env fusion inh | Rce1 inhib | MT1-MMP act inh | MT1-MMP act inh RFP | others
CC(C)c1ccccc1OCCCCCN1CCOCC1 | -12 | 22 | / | / | 16 | / | 7 | 9
CCn1ccnc1C(O)(c1ccccc1)c1ccccc1 | -13 | -16 | 0 | -7 | -103 | i | -3 | 0
CCN(CC)CCC(=O)N1c2ccccc2CCc2ccc(NC(=O)OC(C)C)cc21 | 1 | -4 | -5 | -2 | 2 | i | 0 | -3
CC(=O)c1ccc(NC(=O)c2ccc(CNc3c(N4CCOCC4)c(=O)c3=O)cc2)cc1 | -8 | -6 | 8 | -16 | 7 | i | 7 | 6

3 entries drawn at random from those above, as already listed:
SMILES | Yeast UUG start | CSC inhib | PABP polyA inh | eIF4H inh | Env fusion inh | Rce1 inhib | MT1-MMP act inh | MT1-MMP act inh RFP | others
CCn1ccnc1C(O)(c1ccccc1)c1ccccc1 | -13 | -16 | 0 | -7 | -103 | i | -3 | 0
O=C(N/N=C\c1ccccn1)c1cccc(C(=O)N/N=C\c2ccccn2)n1 | / | -13 | / | / | -26 | i | 1 | -4
CC(=O)Nc1ncc(Cc2cc(Cl)ccc2Cl)s1 | / | 34 | -7 | -8 | -16 | i | 1 | 3

Later entries.
SMILES | Yeast UUG start | CSC inhib | PABP polyA inh | eIF4H inh | Env fusion inh | Rce1 inhib | MT1-MMP act inh | MT1-MMP act inh RFP | others
Cn1cccc1C(=O)NC(=O)COC(=O)CC12CC3CC(CC(C3)C1)C2 | -6 | -7 | 20 | 2 | / | i | 1 | 3
CCCNS(=O)(=O)c1ccc(OCC(=O)Nc2ccc3c(c2)OCCO3)c(C)c1 | / | -8 | / | / | -22 | i | -1 | -2
Cc1c(C(=O)Nc2ccc(S(=O)(=O)N(C)C3CCN(C)CC3)cc2)oc2c(Cl)cccc12 | -5 | 11 | / | / | -30 | i | 0 | -1
O=C(CSc1nc2ncccc2[nH]1)NCc1ccco1 | -17 | 3 | 11 | 11 | 4 | i | 5 | 7
C=CCOc1ccc(/C=C/C(=O)OCC(=O)N(C)CC(=O)Nc2ccccc2Cl)cc1 | / | 5 | / | / | 2 | i | 4 | 4
CCCCCCCSc1nc(N)cc(=O)[nH]1 | / | 9 | 8 | 5 | -63 | i | 6 | 2
COC(=O)Nc1ccc(S(=O)(=O)N2CCCC(C(=O)N3CCN(C)CC3)C2)cc1 (stereo not drawn) | 2 | -14 | 5 | -7 | -1 | i | -2 | 0
COCCn1nnnc1C(c1cccc(C(F)(F)F)c1)N1CCN(Cc2ccccc2)CC1 (stereo not drawn) | / | -1 | 4 | 2 | / | i | 1 | -2
Cc1cnn(CCC(=O)NNC(=S)Nc2ccccc2)c1 | / | -3 | -3 | -11 | / | i | 0 | 4
CCN1CCN(c2ccc(S(=O)(=O)N3CCCCC3)cc2NC(=O)c2ccc(C)o2)CC1 | -13 | -13 | / | / | / | i | -3 | 0
O=C(Nc1ccc(N2CCOCC2)cc1)c1ccc(Cl)cc1N1CCCC1=O | 3 | / | / | / | 3 | / | 2 | 4
O=c1[nH]c2ccccc2nc1/C=C/c1ccc(Cl)cc1 | 0 | 3 | -3 | ? | -84 | i | -10 | 0
Cc1cc(C)cc(NC(=S)N2CCN(CCO)CC2)c1 | / | 21 | 3 | -1 | -14 | i | 1 | 4
O=C(CCCOc1ccc(Cl)cc1Cl)NCCCO | -14 | -10 | -9 | -2 | / | i | 4 | 3
C1CN(c2nc(N3CCOCC3)nc(N3CCOCC3)n2)CCO1 | / | 19 | 10 | 0 | / | i | / | /
COC(=O)c1ccc(COc2ccccc2/C=C(\C#N)C(=O)Nc2c(C)cc(C)cc2C)cc1 | / | 117* | -2 | -6 | / | i | -20 | -23
CC/C(Cc1ccccc1)=N/NC(=O)CNC(=O)c1ccc(Cl)cc1Cl | -10 | / | 2 | 0 | 8 | i | 0 | 0
CC(=O)Oc1ccccc1Cn1c(C)c(C(=O)NCc2cccc(Cl)c2)sc1=O | -4 | / | / | / | 59* | / | -8 | -8
COc1ccc(-c2ccc3sc4ccccc4c(=O)c3c2)cn1 | -9 | -2 | / | / | i | i | -1 | 3
COc1ccccc1NC(=O)Cc1ccc(-c2ccccc2)cc1 | 0 | 20 | -4 | -4 | -13 | i | 1 | -5
CCOc1ccc(-c2nc(N)ncc2-c2ccc(OC)cc2)c(O)c1 | / | 9 | 21 | 9 | 21 | i | -10 | -8
CCOc1ccc(CCN2C(=S)N([C@@H](CC(C)C)CN3CCCC3CN3C(=S)NC[C@@H]3CC(C)C)C[C@@H]2Cc2ccccc2)cc1 (stereo partly drawn) | -27 | / | / | / | 19 | / | 2 | -9
O=S(=O)(N1CCCCCC1)N1CCN(S(=O)(=O)N2CCCCC2)CC1 | -3 | / | 3 | -5 | / | i | 2 | -1
COC(=O)c1ccccc1NC(=O)c1cc(OC)cc(OC)c1 | -18 | -4 | -2 | 2 | / | i | 0 | 1
Cc1ccc(S(=O)(=O)N2CCN(C(=O)c3ccc(-n4cncn4)c([N+](=O)[O-])c3)CC2)cc1C | -23 | -9 | / | / | 17 | i | 2 | -1
Continuation.
SMILES | Yeast UUG start | CSC inhib | PABP polyA inh | eIF4H inh | Env fusion inh | Rce1 inhib | MT1-MMP act inh | MT1-MMP act inh RFP | others
COc1cc(Br)cc(C2C3=C(CCCC3=O)N(c3ccc(F)cc3)C3=C2C(=O)CCC3)c1O | / | 8 | -5 | 7 | -21 | i | -4 | -6
Cc1ccccc1NC(=O)c1ccc(Nc2c([N+](=O)[O-])cc([N+](=O)[O-])c3ccccc23)cc1 | / | 34 | 1 | -1 | 10 | i | 6 | -18
COc1c(/C=N/Nc2ccc(C(=O)O)cc2)c(CCN(C)C(C)=O)cc2c1OCO2 | / | -14 | 4 | -12 | -9 | i | 5 | 1
Cc1cccc(N(CC(=O)N2CCN(c3ccc(F)cc3)CC2)S(C)(=O)=O)c1C | 3 | -7 | 5 | -4 | 7 | i | 1 | -1
CCCCN(C(=O)c1cccc(-c2ccc(OC(C)=O)cc2)c1)c1c(N)n(CCC)c(=O)[nH]c1=O | -8 | 14 | / | / | / | / | 5 | -4
CCN1/C(=C/C=C/c2oc3ccc(-c4ccccc4)cc3[n+]2CC)Oc2ccc(-c3ccccc3)cc21 | -4 | 116* | ? | ? | 77* | i | -46 | 40
O=C(O)c1ccc(Cl)c(S(=O)(=O)Nc2ccc3[nH]c(=O)[nH]c3c2)c1 | / | -13 | 22 | 12 | 2 | i | -4 | 1
NS(=O)(=O)c1ccc(CNC(=S)NC2CC2)cc1 | / | -21 | -2 | 2 | 4 | i | 4 | 3
CCOC(=O)N1CCN(C(=O)COCc2cc(-c3ccc4c(c3)OCO4)on2)CC1 | -11 | -13 | 4 | -7 | -6 | i | 0 | 3
CCOC(=O)C1(CCc2ccccc2)CCN(C(=O)CCn2cnnn2)CC1 | / | -6 | -3 | -8 | -14 | i | -1 | -5
Cc1ccc(OCCn2cc(/C=N/NC(=O)c3ccncc3)c3ccccc32)cc1 | -30 | 5 | 4 | 0 | -5 | i | -5 | -17

Screening results from PubChem BioAssay.
